# DUX4 inh: DUX4-mediated transcription inhibition. 293T-iDUX4 ZSCAN4-Gaussia luciferase reporter, 24 h; stronger effect = lower value. activity change, negative = inhibition, % (test concentration not listed). 37,000 compounds, 0.8% hits. AID 1224904;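 active means -10% or lower and over 25 points stronger than a control reporter; inconclusive means -10% or lower with a smaller gap; inactive means above -10%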;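 further: 0% = median of neutral control wells and -100% = median of positive control wells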
# DUX4 inh difference: also measured in DUX4 inh; calls as there; Gaussia minus Italica difference, %; measured here: selective DUX4 reporter inhibition;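 worked out from the two reporters; negative = selective loss of the DUX4 reporter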
# DUX4 inh control: further read-out of DUX4 inh, marked with its call; activity change, negative = inhibition, %; measured here: Italica tet-on control reporter;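 0 = neutral control and -100 = positive control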
# * marks the source's active call; other numbers are inactive results; u = inconclusive; x = not tested or not shown; & = joins results of further samples. Only part of the results is shown; count on the stated rates, not on these rows.
DUX4 inh,smiles,DUX4 inh difference,DUX4 inh control
2,CCC(=O)N1[C@@H](CO)[C@@H](c2ccccc2)[C@@H]1CNC(=O)CN1CCOCC1,-1,2.9
6,O=C(N[C@H]1C=C[C@H](CC(=O)N2CCOCC2)O[C@H]1CO)c1ccccn1,1,4.4
2,CC(C)C#Cc1ccc([C@@H]2[C@@H](C#N)N(C(=O)C3CC3)[C@H]2CO)cc1,2,-0.2
-5,C[C@@H]1CCCCO[C@H](CN(C)C(=O)Nc2ccc(C(F)(F)F)cc2)[C@H](C)CN([C@H](C)CO)C(=O)c2cc(NS(=O)(=O)c3ccc(Cl)cc3)ccc2O1,-8,2.6
12,CS(=O)(=O)N1CCCCN2[C@H](CO)[C@@H](c3ccc(-c4cccc(C#N)c4)cc3)[C@@H]2C1,12,-0.1
4,N#C[C@H]1N[C@@H](CO)[C@@H]1c1ccc(-c2cccc(F)c2)cc1,3,1.0
-5,C[C@@H]1CN([C@H](C)CO)C(=O)CCCn2nncc2CO[C@H]1CN(C)Cc1ccc(Cl)c(Cl)c1,3,-8.0
-7,Cc1noc(C)c1NC(=O)N(C)C[C@H]1Oc2ccc(NC(=O)Cc3cn(C)c4ccccc34)cc2CC(=O)N([C@H](C)CO)C[C@@H]1C,-5,-1.9
8,COc1ccc(NC(=O)N2C[C@@H](O)COC[C@H]3O[C@H](CC(=O)NCc4ccccc4OC)CC[C@@H]32)cc1,-1,8.4
-2,COc1cccc(NC(=O)N[C@@H]2C=C[C@@H](CC(=O)NCc3ccncn3)O[C@H]2CO)c1,-6,4.6
u,COc1cccc(-c2ccc3c(c2)[C@@H]2[C@@H](CCN2C(=O)NC2CCCC2)[C@H](CO)N3C)c1,x,x
-2,CO[C@H]1CN(C)C(=O)c2ccc(NC(=O)Nc3cc(F)ccc3F)cc2OC[C@@H](C)N(C(=O)c2ccccn2)C[C@H]1C,-8,6.0
u,C/C=C/c1ccc([C@@H]2[C@@H](CO)N3CCCCN(S(=O)(=O)c4ccc(OC)cc4)C[C@@H]23)cc1,x,x
-8,CCCN1[C@H](C(=O)N(C)C)[C@@H](CO)[C@@H]2Cn3c(ccc(-c4ccccc4)c3=O)[C@@H]21,-9,1.3
-5,COc1cccc(NC(=O)N2CC(=O)N3[C@@H](CO)[C@H](c4ccc(Br)cc4)[C@@H]3C2)c1,4,-9.0
-2,CO[C@H]1CC[C@H]2CCN(C)C(=O)C[C@@H](c3ccccc3)CN(C)C(=O)c3cccc(C#N)c3OC[C@@H]1O2,0,-1.9
0,C[C@@H]1CN([C@@H](C)CO)C(=O)c2cc(NC(=O)Nc3ccc(C(F)(F)F)cc3)ccc2O[C@@H](C)CCCCO[C@@H]1CN(C)S(=O)(=O)c1cn(C)cn1,-5,4.8
4,C[C@@H]1CCCCO[C@H](CN(C)C(=O)Nc2ccc(C(F)(F)F)cc2)[C@H](C)CN([C@@H](C)CO)C(=O)c2cc(NS(=O)(=O)c3ccc(Cl)cc3)ccc2O1,1,3.0
2,COc1ccc(NC(=O)N(C)C[C@@H]2Oc3ccc(NC(=O)C4CCCCC4)cc3CC(=O)N([C@H](C)CO)C[C@@H]2C)cc1,4,-1.8
u,CCCC#Cc1ccc([C@@H]2[C@H](CO)N3CCCCN(C(=O)c4ccc5c(c4)OCO5)C[C@@H]23)cc1,x,x
6,CN(C)C(=O)[C@H]1[C@H](CO)[C@H]2Cn3c(ccc(-c4cccnc4)c3=O)[C@@H]1N2C(=O)NC1CCCC1,0,5.7
u,O=C(Nc1ccc(Cl)cc1)N[C@@H]1CC[C@H](CCn2cc(-c3ccccc3F)nn2)O[C@@H]1CO,x,x
-3,O=C(C[C@@H]1CC[C@H]2[C@@H](COC[C@@H](O)CN2Cc2ccc(F)cc2)O1)NCCc1ccccc1,-10,6.4
2,N#C[C@H]1N[C@H](CO)[C@H]1c1ccc(C2=CCCC2)cc1,0,2.6
2,CO[C@H]1CN(C)C(=O)c2cc(NC(C)=O)ccc2OC[C@@H](C)N(Cc2ccncc2)C[C@H]1C,-6,8.2
-2,CN(C)C(=O)C[C@@H]1C[C@H]2c3cc(NC(=O)CC4CC4)ccc3O[C@H]2[C@@H](CO)O1,-1,-1.6
3,CCCNC(=O)N1[C@H](CNC(=O)c2ccc(F)cc2)[C@@H](c2ccccc2)[C@@H]1CO,-1,3.5
-1,C[C@H]1CN([C@@H](C)CO)S(=O)(=O)c2ccc(-c3ccc(C(=O)N(C)C)cc3)cc2O[C@H]1CN(C)C(=O)Cc1ccccn1,3,-4.0
3,C[C@H](O)C#Cc1ccc([C@H]2[C@H](CO)N3CCCCN(S(=O)(=O)c4ccccc4)C[C@@H]23)cc1,7,-3.6
1,C[C@H](CO)N1C[C@H](C)[C@@H](CN(C)S(=O)(=O)c2ccc(-c3ccccc3)cc2)OCc2cnnn2CCCC1=O,10,-8.7
4,COCCNC(=O)C[C@@H]1CC[C@H]2[C@@H](COC[C@H](O)CN2C(=O)c2cc(Cl)cc(Cl)c2)O1,3,0.5
u,CN(C)C(=O)c1cccc(-c2ccc3n(c2=O)C[C@@H]2[C@@H](CO)[C@H](C(=O)NCC(F)(F)F)[C@H]3N2C)c1,x,x
0,C[C@H](O)C#Cc1cnc2c(c1)C(=O)N([C@H](C)CO)C[C@@H](C)[C@@H](CN(C)C(=O)c1ccccc1F)O2,-1,1.2
0,C[C@@H]1CN([C@H](C)CO)C(=O)c2cc(NS(=O)(=O)c3cccs3)ccc2O[C@@H]1CN(C)Cc1ccc(C(=O)O)cc1,-4,4.6
1,C/C=C/c1ccc([C@@H]2[C@@H](CO)N(C(=O)CC)[C@H]2CN(C)C(=O)C2CC2)cc1,-1,1.2
u,Cc1ccccc1S(=O)(=O)N1CC(=O)N2[C@@H](CO)[C@@H](c3ccc(C#CCC4CCCC4)cc3)[C@@H]2C1,x,x
4,CO[C@@H]1CN(C)C(=O)c2cc(NC(=O)c3cccc(F)c3)ccc2OC[C@@H](C)N(C)C[C@H]1C,0,4.0
15&-2,O=C(Nc1cccc(F)c1)N1[C@@H]2CNC[C@H]1C2c1ccc(-c2cccnc2)cc1 (stereo partly specified),17&-4,-1.9&2.4
5,CO[C@@H]1CN(C)C(=O)c2cc(NC(=O)C3CCOCC3)ccc2OC[C@H](C)NC[C@@H]1C,3,1.9
-3,C[C@@H]1CCCCO[C@@H](CN(C)S(=O)(=O)c2ccc(Cl)cc2)[C@@H](C)CN([C@@H](C)CO)C(=O)c2cc(NC(=O)Nc3ccc(C(F)(F)F)cc3)ccc2O1,-3,0.4
5,COc1ccccc1NC(=O)N[C@H]1CC[C@H](CCNC(=O)c2ccc3c(c2)OCO3)O[C@H]1CO,5,-0.3
-5,COc1ccccc1C(=O)N1C[C@@H]2[C@H](c3ccccc31)[C@H](CO)N2C(=O)C1CCCCC1,-7,1.6
0,O=C(NC1CCC1)[C@H]1[C@H](CO)[C@H]2Cn3c(ccc(-c4ccccc4F)c3=O)[C@H]2N1Cc1cocn1,-1,0.5
4,COc1ccc2c3c(n(C)c2c1)[C@@H](CO)N(Cc1ccc2c(c1)OCO2)CC31CCN(C(C)=O)CC1,5,-1.2
2,O=C(NC[C@@H]1[C@H](c2ccccc2)[C@H](CO)N1CC1CCCC1)C1CC1,-1,2.5
2,COc1ccccc1NC(=O)N(C)C[C@H]1OCc2cn(nn2)CCCC(=O)N([C@@H](C)CO)C[C@H]1C,7,-5.4
-1,CCCNC(=O)Nc1ccc2c(c1)C(=O)N(C)[C@H]1CC[C@@H](CC(=O)NCc3ccccc3)O[C@H]1CO2,-1,0.2
u,Cc1cccc(-c2ccc([C@H]3[C@@H](CO)N4CCCCN(S(=O)(=O)c5cccs5)C[C@H]34)cc2)c1,x,x
11,CC(C)CC#Cc1ccc([C@H]2[C@H]3CN(C(=O)CN4CCOCC4)CC(=O)N3[C@H]2CO)cc1,6,4.2
2,O=C(C[C@H]1C[C@H]2c3cc(NC(=O)Nc4ccccc4F)ccc3O[C@H]2[C@@H](CO)O1)NCc1cc(F)ccc1F,3,-0.4
-2,CCC(=O)N1C[C@H]2[C@@H](c3ccccc31)[C@@H](CO)N2Cc1ccccc1F,-7,4.8
6,O=C(CN1CCOCC1)N[C@@H]1CC[C@H](CCNS(=O)(=O)c2ccccc2F)O[C@@H]1CO,5,1.3
-2,O=C(C[C@@H]1C=C[C@H](NC(=O)c2ccccn2)[C@H](CO)O1)NCc1cccc(F)c1,8,-9.3
2,C[C@H](NC(=O)C[C@H]1C[C@H]2c3cc(NC(=O)CN(C)C)ccc3O[C@H]2[C@H](CO)O1)c1ccccc1,1,1.0
4,Cc1nn(C)cc1NC(=O)C[C@@H]1CC[C@@H]2[C@H](COc3ccc(NC(=O)c4cccc(F)c4)cc3C(=O)N2C)O1,0,3.9
4,CS(=O)(=O)N1CC(=O)N2[C@H](CO)[C@@H](c3ccc(C#CC4CCCC4)cc3)[C@@H]2C1,0,4.2
2,CCCN(C)C[C@@H]1Oc2cc(C#Cc3cccnc3)ccc2S(=O)(=O)N([C@H](C)CO)C[C@@H]1C,3,-1.6
14,O=C(C1CCOCC1)N1CC(=O)N2[C@H](C1)[C@@H](c1ccc(-c3cccnc3)cc1)[C@@H]2CO,10,4.5
18,CS(=O)(=O)N1CCCCN2[C@H](C1)[C@H](c1ccc(C3=CCCC3)cc1)[C@@H]2CO,4,14
19,C[C@H](O)C#Cc1ccc([C@H]2[C@@H](CO)N3CCCCN(S(=O)(=O)Cc4ccccc4)C[C@@H]23)cc1,17,2.3

# Filtered by structure: the compounds so far with a Cl atom (6)
DUX4 inh,smiles,DUX4 inh difference,DUX4 inh control
-5,C[C@@H]1CCCCO[C@H](CN(C)C(=O)Nc2ccc(C(F)(F)F)cc2)[C@H](C)CN([C@H](C)CO)C(=O)c2cc(NS(=O)(=O)c3ccc(Cl)cc3)ccc2O1,-8,2.6
-5,C[C@@H]1CN([C@H](C)CO)C(=O)CCCn2nncc2CO[C@H]1CN(C)Cc1ccc(Cl)c(Cl)c1,3,-8.0
4,C[C@@H]1CCCCO[C@H](CN(C)C(=O)Nc2ccc(C(F)(F)F)cc2)[C@H](C)CN([C@@H](C)CO)C(=O)c2cc(NS(=O)(=O)c3ccc(Cl)cc3)ccc2O1,1,3.0
u,O=C(Nc1ccc(Cl)cc1)N[C@@H]1CC[C@H](CCn2cc(-c3ccccc3F)nn2)O[C@@H]1CO,x,x
4,COCCNC(=O)C[C@@H]1CC[C@H]2[C@@H](COC[C@H](O)CN2C(=O)c2cc(Cl)cc(Cl)c2)O1,3,0.5
-3,C[C@@H]1CCCCO[C@@H](CN(C)S(=O)(=O)c2ccc(Cl)cc2)[C@@H](C)CN([C@@H](C)CO)C(=O)c2cc(NC(=O)Nc3ccc(C(F)(F)F)cc3)ccc2O1,-3,0.4

# (listing goes on)
DUX4 inh,smiles,DUX4 inh difference,DUX4 inh control
-5,CS(=O)(=O)N1CC(=O)N2[C@H](C1)[C@H](c1ccc(C#CCC3CCCC3)cc1)[C@@H]2CO,-14,9.6
6,N#C[C@H]1[C@@H](c2ccccc2-c2ccccc2F)[C@H](CO)N1C(=O)C1CCOCC1,5,1.5
0,COC(=O)C[C@@H]1CC[C@H]2[C@H](COc3ccc(NS(=O)(=O)c4ccccc4F)cc3C(=O)N2C)O1,-4,4.5
u,COc1ccccc1NC(=O)N[C@H]1CC[C@@H](CC(=O)N2CCC(Cc3ccccc3)CC2)O[C@@H]1CO,x,x
1,O=C(Nc1ccc(F)cc1)N1CC(=O)N2[C@@H](CO)[C@@H](c3ccc(C#Cc4ccccc4)cc3)[C@@H]2C1,4,-3.1
4,CO[C@H]1CN(C)C(=O)c2ccc(NC(C)=O)cc2OC[C@@H](C)N(C(=O)Cc2cccnc2)C[C@@H]1C,4,0.7
9,COc1ccc2c3c(n(C)c2c1)[C@H](CO)N(CC1CC1)CC31CN(C(=O)CN2CCOCC2)C1,6,2.8
-1,CNC[C@H]1Oc2c(N)cccc2C(=O)N([C@H](C)CO)C[C@H]1C,5,-5.6
3,COc1ccccc1C(=O)Nc1ccc2c(c1)C(=O)N(C)C[C@H](OC)[C@H](C)CN(C(C)=O)[C@H](C)CO2,-1,4.3
-5,COc1ccc(-c2ccc([C@@H]3[C@H](C#N)N(C(=O)C4CCCC4)[C@H]3CO)cc2)cc1,-3,-1.6
-3,N#C[C@@H]1[C@@H](c2ccc(C#CC3CC3)cc2)[C@H](CO)N1C(=O)c1cccc(F)c1,-5,2.2
27,COc1ccc2c3c(n(C)c2c1)[C@@H](CO)N(C(C)=O)CC31CN(Cc2nccs2)C1,21,6.0
5,CN1[C@@H]2c3ccc(-c4ccccc4)c(=O)n3C[C@H]1[C@H](CO)[C@H]2C(=O)NC1CCCCC1,4,1.2
-1,O=C(Nc1ccccc1)N1C[C@@H]2[C@H](c3ccccc31)[C@@H](CO)N2Cc1ccc(F)cc1,2,-2.8
u,COCC(=O)N1CC2(C1)CN(Cc1ccccc1Cl)[C@@H](CO)c1[nH]c3cc(OC)ccc3c12,x,x
5,O=C(NCC1CC1)[C@H]1[C@H](CO)[C@H]2Cn3c(cccc3=O)[C@H]2N1Cc1cncnc1,-3,8.1
-1,O=C(C[C@@H]1CC[C@H]2[C@@H](COC[C@@H](O)CN2Cc2cc(F)cc(F)c2)O1)NC1CCCC1,2,-3.0
7,Cn1cnc(S(=O)(=O)N2CCCCN3[C@H](C2)[C@H](c2ccc(C#CC4CCCC4)cc2)[C@@H]3CO)c1,1,5.9
-4,CC(C)NC(=O)N[C@H]1CC[C@@H](CCNC(=O)C2CCOCC2)O[C@@H]1CO,-1,-3.0
0,C/C=C/c1ccc([C@H]2[C@@H](CO)N(C(C)=O)[C@H]2CN(C(=O)COC)C(C)C)cc1,3,-3.0

# Given with two lines to a compound: entries from further up
# Order of results – DUX4 inh, DUX4 inh difference, DUX4 inh control
- COc1ccccc1NC(=O)N[C@H]1CC[C@@H](CC(=O)N2CCC(Cc3ccccc3)CC2)O[C@@H]1CO
    u, x, x
- O=C(Nc1ccc(F)cc1)N1CC(=O)N2[C@@H](CO)[C@@H](c3ccc(C#Cc4ccccc4)cc3)[C@@H]2C1
    1, 4, -3.1

# Bioassay records deposited in PubChem by Broad Institute.
